Bioassay records as filed in PubChem BioAssay.
ClpP mod: qHTS Assay for Activators of ClpP; purified B. subtilis ClpP, FRET peptide cleavage, 20 min; Potency, µM (top dose mostly 57.5 µM), without a hit: at the top dose activity change, negative = active; 340,000 tested, 1.9% active; AID 651965, 2013; active = well fitted falling curve with a large enough effect; inconclusive = small, poorly fitted or top-dose-only effect; inactive = no such curve, though single readings can be large or run the other way; further: the source files actives as falling curves though it sought activators and does not explain the sign; nearly all actives have a fitted effect of over 65% in size; many hits overshoot -100%
Target sequence (P80244 whole entry, looked up): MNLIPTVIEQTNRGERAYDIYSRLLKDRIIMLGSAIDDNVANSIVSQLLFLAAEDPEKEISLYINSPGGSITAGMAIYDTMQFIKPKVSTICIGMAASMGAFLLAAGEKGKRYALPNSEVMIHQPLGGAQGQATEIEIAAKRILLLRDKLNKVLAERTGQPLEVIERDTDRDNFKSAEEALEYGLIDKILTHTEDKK
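Buffer: 100 mM Tris/HCl pH8, 100 mM KCl, 0.05% low protease BSA, 2.5% glycerol, 0.01% Tween-20. ClpP 10 microg/mL final; 20 min RT; delta FRET normalized to ADEP and DMSO controls.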
PINK1 expr mod: PINK1 expression modulation | PINK1 immunofluorescence, high-content cytometry, 24 h | Potency, µM (doses to about 76.6 µM), inactives show at the highest dose activation (PINK1 increase), usual class: activators | 410,000 tested, 0.2% active | AID 624263; active = well fitted activation curve with a large enough effect; inconclusive = small, poorly fitted or top-dose-only effect; inactive = flat fitted curve, though single readings scatter; cell line not stated here;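 further: % of control where 0% means no effect; nearly all actives have a fitted effect of over 65% in size; a mitochondrial uncoupler was the plate control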
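PINK1 protein level read as immunofluorescence by microplate cytometer in a fixed, stained stable cell line after 24 h exposure to five compound concentrations, with CCCP as control.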
An asterisk follows results filed as active; ? = inconclusive. Potency means the concentration at half of the fitted maximal effect.

Second line of a record: ClpP mod, PINK1 expr mod
- O=C(NC1CCCCC1)C1c2ccccc2OCC(=O)N1Cc1ccco1 (stereo not given)
  1.8%, 0.4%
- O=C(CSc1nccn1Cc1ccc(F)cc1)Nc1ccc2c(c1)OCCO2
  -2.0%, -11%
- Cc1ccc(Cl)cc1N1CCN(C(=O)c2cnn(C(C)(C)C)c2C2CCN(C(=O)OC(C)(C)C)CC2)CC1
  0.9%, 1.8%
- O=C(NCCCN1CCCCC1)c1cc(Sc2ccc(Cl)cc2)nc2ccccc12
  -2.7%, 6.4%
- CCOC(=O)CSc1nc2sc3c(c2c(=O)n1Cc1ccccc1)CCC(C(C)(C)C)C3 (stereo not given)
  -2.5%, 2.3%
- O=C(NC1CC(=O)N(c2ccc(F)cc2)C1)c1ccco1 (stereo not given)
  0.0%, 1.2%
- CCOC(=O)c1noc2ncnc(NCc3ccccc3OC)c12
  -0.3%, 0.1%
- Cc1ccccc1Cn1c(SCc2ccc(C(=O)NC3CCCCC3)cc2)nc2ccncc21
  -7.9%, 0.2%
- O=c1c2oc3ccccc3c2n(Cc2ccc(Cl)cc2)c(=O)n1Cc1ccc2c(c1)OCO2
  -8.8%, 0.3%
- CCc1ccccc1NC(=O)C1CCN(S(=O)(=O)c2ccc3[nH]c(=O)ccc3c2)CC1
  -14%, -3.2%
- CCOc1ccc(C(=O)Nc2ccc(C(=O)OCc3cc(=O)n4ccsc4n3)cc2)cc1
  -2.4%, 0.7%
- COc1ccc(-c2ccc(=O)n(CC(=O)Nc3ccc(Br)cc3F)n2)cc1
  -11%, 3.6%
- Cc1cccc(NC(=O)CSc2nncn2C)c1
  1.0%, -3.9%
- Cc1cccc(N2CCN(C(=O)C3CCN(S(=O)(=O)c4cn(C)cn4)CC3)CC2)c1C
  1.3%, 0.8%
- COC(=O)c1cc2sc(Cl)cc2n1Cc1c(C)cc(C)cc1C
  1.8%, 1.3%
- C=Cc1ccc(COc2ccc3oc(-c4ccccc4)c(C(=O)OCC)c3c2)cc1
  3.8%, 1.8%
- CCSc1ccccc1C(=O)N1CCN(c2nc3ccccc3s2)CC1
  0.8%, 1.4%
- Cc1ccccc1OCC(=O)OCc1cc(=O)n2nc(C3CCCCC3)sc2n1
  -6.4%, 6.2%
- O=C(CSc1nc2c([nH]c3ccccc32)c(=O)n1-c1ccc(F)cc1)Nc1ccc2c(c1)OCO2
  ?, 0.2%
- O=C(CC1N=C2c3ccccc3N=C(SCc3cccc(Cl)c3)N2C1=O)NC1CCCCC1 (stereo not given)
  35µM*, 4.0%
- COc1cccc(CNC(=O)CCn2cccn2)c1
  2.0%, -1.8%
- Cc1nc2nc(SCC(=O)NC3CCC(C)CC3)nn2c(C)c1Cc1ccccc1Cl (stereo not given)
  -6.7%, 0.9%
- CC(C)Oc1ccc(CNC(=O)C2CCCN(S(=O)(=O)c3ccc4c(ccn4C)c3)C2)cc1 (stereo not given)
  -0.1%, 3.0%
- CCc1ccc(NC(=O)CCn2nc(-c3ccccc3OC)c3c(C)cc(C)nc32)cc1
  3.9%, -1.9%
- Cc1ccc2nc(-c3cccs3)c(Nc3ccc4c(c3)OCCO4)n2c1
  ?, 1.6%
- COc1ccccc1C(=O)NCC[N+](C)(C)C
  -1.2%, 0.1%
- Cc1ccc(S(=O)(=O)c2nnn3c2nc(N2CCCC2)c2sccc23)cc1C
  -0.9%, 0.9%
- Cc1ccccc1Nc1cc(C(=O)NC2CCC(C)CC2)c2ccccc2n1 (stereo not given)
  ?, 12%
- Cc1ccc2occ(CC(=O)Nc3ccc(S(N)(=O)=O)cc3)c2c1
  -1.1%, 7.1%
- Cc1ccc2c(c1)-c1onc(C(=O)N(C)c3cccc(C(F)(F)F)c3)c1CO2
  -16%, 1.1%
- CCC1CCCCN1C(=O)Cn1c(=O)n(CCCCCC(=O)NCc2ccccc2)c(=O)c2sccc21 (stereo not given)
  -1.4%, 4.5%
- O=S(=O)(c1cccnc1)N1CCN(c2nc(-c3cccs3)nc3ccccc23)CC1
  32µM*, -0.6%
- CCC(=O)N1CCc2cc(Br)cc(S(=O)(=O)N3CCCC(C(=O)Nc4cc(C)ccc4OC)C3)c21 (stereo not given)
  -0.7%, 0.7%
- O=C(Nc1cc(Cl)cc(Cl)c1)c1ccc(F)c(S(=O)(=O)N2CCN(c3ccccc3F)CC2)c1
  -21%, 2.4%
- COc1ccc(-c2c3c(nc4sc(C(=O)Nc5ccc(F)cc5)c(N)c24)CC(C)(C)CC3=O)cc1
  -1.5%, 4.5%
- O=C(NCc1ccccc1Cl)c1ccc(NC(=O)c2nsc3ccccc23)cc1
  ?, 0.2%
- CC(Nc1ccc(-c2nc(-c3ccccn3)no2)cc1[N+](=O)[O-])c1ccccc1 (stereo not given)
  2.4%, -1.1%
- CCc1ccc(NC(=O)N(Cc2cn(CC)c3ccccc23)C2CCCCC2)cc1
  -22%, -0.8%
- COc1ccc(CNC(=O)c2ccc(NC(=O)N3CC4CCCN4c4ccccc43)cc2)cc1 (stereo not given)
  -1.4%, 0.6%
- O=C(Cn1ncn2c(cc3ccccc32)c1=O)NCc1ccc(F)cc1
  -8.2%, 3.2%

The last 3 entries of the part before come first, to join the parts:
Second line of a record: ClpP mod, PINK1 expr mod
- CCc1ccc(NC(=O)N(Cc2cn(CC)c3ccccc23)C2CCCCC2)cc1
  -22%, -0.8%
- COc1ccc(CNC(=O)c2ccc(NC(=O)N3CC4CCCN4c4ccccc43)cc2)cc1 (stereo not given)
  -1.4%, 0.6%
- O=C(Cn1ncn2c(cc3ccccc32)c1=O)NCc1ccc(F)cc1
  -8.2%, 3.2%
- NS(=O)(=O)c1ccc(NC(=O)CCn2c(=O)oc3ccccc32)cc1
  -1.8%, 0.0%
- Nc1ccc(O)cc1
  1.3%, 14%
- CC1(c2nnnn2-c2ccc3c(c2)OCCO3)CCC(=O)N1Cc1cccnc1 (stereo not given)
  1.2%, 0.3%
- O=C(Oc1ccc(Cl)cc1)c1cc(-c2ccc3c(c2)OCCO3)on1
  ?, 1.3%
- Nc1ccc(C(Cc2ccnc3ccccc23)Cc2ccnc3ccccc23)cc1
  0.5%, -0.8%
- COC(=O)c1ccc(NC(=O)C(=O)NCCc2csc3nc(-c4ccccc4F)nn23)cc1
  -1.9%, 19%
- O=C(CSc1nc2c(c(=O)[nH]1)CN(Cc1ccc3c(c1)OCO3)CC2)Nc1cc(F)ccc1F
  -3.1%, -1.7%
- Cc1ccc2oc(-c3cc(NC(=O)c4cccs4)cc(C)c3O)nc2c1
  0.6%, -0.6%
- Cc1noc(Cn2c(=O)c3ccccc3n(CC(=O)Nc3cccc(Cl)c3C)c2=O)n1
  -15%, 1.5%
- O=C(c1cc(Cl)cc(Cl)c1)N1CCC(=O)N([C@H](COCc2ccccc2)Cc2ccccc2)CC1
  0.9%, 0.4%
- Cc1ccc(-n2c(COCC(=O)O)nc3cccnc32)cc1
  -12%, 1.2%
- CCOc1ccc(NC(=O)c2ccc3c(c2)CCN3S(=O)(=O)CC)cc1
  -3.3%, 4.8%
- COc1ccccc1CNc1ncnc2c1nnn2C
  -3.7%, 22%
- O=C(NCCCc1ccccc1)c1ccc2c(c1)sc1nc(-c3ccc(F)cc3)cn12
  4.4%, 2.7%
- CCN1C(=O)c2ccccc2S(=O)c2ccc(C(=O)NCc3ccc(Cl)cc3)cc21 (stereo not given)
  -4.8%, -0.7%
- Cc1ccc(-c2nc(C(=O)NCc3ccccc3Cl)c3n2CCCCC3)cc1
  -17%, -0.2%
- Fc1ccc(-c2noc3ncnc(NCCc4ccc(Cl)cc4)c23)cc1
  -4.7%, 2.0%
- COc1ccc(OC)c(NC(=O)c2cnc(N3CCCC3)nc2C)c1
  -1.2%, 1.3%
- CCOC(=O)c1c(C)[nH]c(CCC(=O)Nc2cc(C)ccc2OC)c1C
  -4.1%, 1.0%
- CCCC(=O)Nc1ccccc1OCc1cc(=O)n2cc(C)ccc2n1
  28µM*, 1.1%
- CCN(C(=O)Cn1nc(Cc2ccncc2)c2ccccc2c1=O)c1ccc(OC)cc1
  1.8%, 1.1%
- CCOc1ccc(CNC(=O)c2cnc(SC)nc2CC)cc1
  -1.3%, 0.5%
- COc1cc(NS(=O)(=O)c2ccc3oc(=O)c4ncn(C)c4c3c2)cc(OC)c1
  1.1%, 1.9%
- CCOC(=O)c1ccccc1NC(=O)N1CCC(CN2CCCCC2)CC1
  ?, 0.4%
- Cc1cccc(NC(=O)c2sc3nc(-c4cc5ccc(O)cc5oc4=O)[nH]c(=O)c3c2C)c1
  -4.8%, 5.7%
- COc1ccc(CCC(=O)NC2CC(=O)N(c3ccc(C)cc3)C2)cc1 (stereo not given)
  -0.3%, 1.1%
- Nc1ccc(/C=C/c2cccc3cccnc23)cc1
  -2.3%, 0.2%
- COc1ccc(NS(=O)(=O)c2ccc3[nH]c(=O)ccc3c2)cc1OC
  0.5%, 2.2%
- COc1ccc(C)cc1NC(=O)CN1C(=O)COc2ccc(S(=O)(=O)NC3CCCC3)cc21
  1.3%, 0.5%
- C[C@H](c1ccccc1)N1C[C@H](COCc2ccccc2)Oc2cc(N3CC[C@@H](O)C3)ccc2S1(=O)=O
  ?, -1.1%
- COc1cc2nc(NC(=O)c3ccc(S(=O)(=O)N4CCCC4)cc3)sc2cc1OC
  7.0%, 5.5%
- Cc1ccc(CNC(=O)c2ccc3c(O)c(S(=O)(=O)c4ccc(Cl)cc4)c(=O)[nH]c3c2)cc1
  -5.2%, -0.6%
- Cc1cccc(OCC(=O)Nc2c(C(=O)N3CCN(c4ccccc4F)CC3)oc3ccccc23)c1
  -2.7%, -1.7%
- CC1CCN(S(=O)(=O)c2ccc3nc(NCc4ccc(F)cc4)ccc3c2)CC1
  4.8%, 2.4%
- COc1cccc(CNC(=O)c2ccc(-c3nc(CS(=O)(=O)c4ccccc4)c(C)o3)cc2)c1
  3.5%, 8.0%
- COc1ccc(-c2nnc(SCC(=O)Oc3cccc(C)c3C)o2)cc1
  -11%, -0.7%
- CCc1cccc(NC(=O)Cn2nc(-c3ccc(OC)cc3)ccc2=O)c1
  -23%, 0.3%
- O=C(CSc1nc2c(c(=O)[nH]1)CN(Cc1ccc3c(c1)OCO3)CC2)Nc1ccccc1Cl
  1.3%, -1.2%
- CCc1ccccc1NC(=O)c1cnc2sc(N3CCOCC3)nn2c1=O
  -0.7%, -0.2%
- O=C(Nc1nc2ccc(Cl)cc2s1)c1ccc(S(=O)(=O)N2CCCC2)cc1
  2.1%, -0.1%
- Cn1ccc2c(OCC(=O)NCc3ccc(F)cc3)cccc2c1=O
  -8.1%, 0.8%
- CCN(C(=O)Cn1cnc2onc(-c3ccc(F)cc3)c2c1=O)c1cc(C)ccc1C
  -1.8%, -3.8%
- Cc1cccc(C(=O)Nc2ccc(-c3nc4ncccc4o3)cc2C)c1
  35µM*, 12%
- Cc1ccc2ccc3cc(C(=O)Nc4ccc(C)c(F)c4)nc3c2[nH]1
  -14%, -0.5%
- CC(C)CCOc1ccc(C(=O)Nc2sc3c(c2C#N)CCCCC3)cc1
  -3.3%, 2.1%
- COCCn1c(CNC(=O)c2cccc(N(C)C)c2)nc2cccnc21
  -13%, 1.5%
- CCOC(=O)c1c(S(=O)(=O)N2CCCC(C(=O)Nc3cccc(Cl)c3)C2)c(C)n(C)c1C (stereo not given)
  0.0%, -0.8%
- Cc1ccc(NC(=O)CN2CCN(C3CCCCC3)C(=O)C2=O)cc1C
  0.6%, 0.2%
- CC(C)c1nn2c(=O)cc(COC(=O)c3cccc(NC(=O)CCc4ccccc4)c3)nc2s1
  4.5%, -0.4%
- Cc1cccc(NC(=O)C(=O)c2cc(C)n(-c3ccccc3)c2C)c1C
  1.9%, 1.2%

Single records, as listed above. Order of values: ClpP mod	PINK1 expr mod
`Cn1ccc2c(OCC(=O)NCc3ccc(F)cc3)cccc2c1=O` is listed as -8.1%	0.8%
`COCCn1c(CNC(=O)c2cccc(N(C)C)c2)nc2cccnc21` is listed as -13%	1.5%
`CCOC(=O)c1c(S(=O)(=O)N2CCCC(C(=O)Nc3cccc(Cl)c3)C2)c(C)n(C)c1C` (stereo not given) is listed as 0.0%	-0.8%

(further entries)
Second line of a record: ClpP mod, PINK1 expr mod
- O=C(CSc1nc(=O)n(Cc2ccccn2)c2c1CCC2)Nc1cccc(Cl)c1
  -8.3%, -0.1%
- NC(=O)C1CCN(S(=O)(=O)c2cc3c(cc2Cl)NC(=O)CO3)CC1
  0.2%, -1.6%
- CCOc1ccc(NC(=O)NCc2ccc3c(c2)CCN3C(C)=O)cc1
  -3.2%, 2.2%
- CCC(C(=O)Nc1ccc(C(C)C)cc1)n1nc(C)n2c(cc3cc(C)ccc32)c1=O (stereo not given)
  4.0%, 0.3%
- Cc1ccc(C)c(NC(=O)Nc2cccc(-c3cn4cccnc4n3)c2)c1
  4.2%, 0.4%
- COc1cc(OC)c(OC)cc1CNCCCSc1nnnn1C
  1.0%, -0.7%
- O=C(c1nc(-c2ccc(Cl)cc2)n2c1CCCCC2)N1CCN(c2ccccc2)CC1
  1.3%, 1.4%
- CCCOc1ccc(OC(=O)c2sc3ncn(Cc4cccc(F)c4)c(=O)c3c2C)cc1
  -0.3%, 0.6%

A portion of the library; the hit share may differ from the screen's.
